Screening data (PubChem BioAssay)
WNV protease inh = blocks West Nile virus NS2B-NS3 protease activity; P06935; WNV NS2B-NS3 protease, fluorogenic substrate Ex360/Em465; active compounds read low; z-score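 (tested at a level between 10 and 100 µM)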; 65,000 tested, 0.18% active;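 active means z-score at -3 or under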;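 further: score is relative to mean and spread of the compound wells of a plate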
Target sequence (P06935 1371-1501 limits assumed): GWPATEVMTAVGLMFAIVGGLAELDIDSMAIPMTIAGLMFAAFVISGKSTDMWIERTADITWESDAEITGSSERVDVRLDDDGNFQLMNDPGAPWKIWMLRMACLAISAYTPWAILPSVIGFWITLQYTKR
Target sequence (P06935 1502-1679 limits assumed): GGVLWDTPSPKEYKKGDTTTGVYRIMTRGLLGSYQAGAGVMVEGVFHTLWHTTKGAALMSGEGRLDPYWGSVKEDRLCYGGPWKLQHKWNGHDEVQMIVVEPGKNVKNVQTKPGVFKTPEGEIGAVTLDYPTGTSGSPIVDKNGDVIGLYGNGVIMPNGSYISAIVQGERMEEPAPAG
MT1-MMP promoter = inhibitors of MT1-MMP promoter transcription, cell-based, luciferase reporter, luminescence (AID 618); MT1-MMP promoter luciferase reporter cells, luminescence; calls from a first round at 10 µM; hits with a dose series show EC50 in µM; 87,000 tested, 0.62% active;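 active means over half of the reporter light lost at 10 µM or EC50 under 50 µM; inactive means the rest and hits that failed the dose series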;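 further: actives suppress MT1-MMP promoter-driven transcription so potencies describe inhibitors; HT1080 fibrosarcoma cells; overnight exposure; toxic or luciferase-blocking compounds were not removed from the actives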
Hsc70 ATP site = small molecules displacing fluorescent ligand from Hsc70 – biochemical, fluorescence polarization, primary screen (AID 568); one-dose displacement, % at 20 µM; IC50 in µM for titrated hits; 83,000 tested, under 10 active; Hsc70 fluorescence polarization, probe displacement; higher % means a stronger effect; strong numbers were not always called active;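 active means displacement above 50% without optical interference and an IC50 on retest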;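 further: ATPase domain with a fluorescein-tagged ATP probe; 0% = vehicle and 100% = excess ADP; read after one hour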
Active calls of the source: *; i = inactive; . = no result given. These rows are one share of the data; count on the stated rates, not on these rows.

SMILES	WNV protease inh	MT1-MMP promoter	Hsc70 ATP site
Cc1ccc(S(=O)(=O)CC(=O)N2CCCCCC2)cc1	0.66	i	3.8%
CSc1cccc(NS(=O)(=O)c2ccc(F)cc2)c1	0.0051	i	-1.1%
Cc1cccc(NC(=O)c2c(C)nc3ccccn23)c1	.	i	-2.2%
C=CCNC(=O)N[C@@H](CCSC)C(=O)OC	0.46	i	-3.5%
CCC(=O)Nc1cc(C)c(NC(=O)c2ccccc2OC)cn1	-0.15	i	-3.3%
O=c1c2ccccc2nc(-c2ccco2)n1-c1nc2ccccc2s1	.	i	-0.4%
O=C(Nc1ccccc1C(F)(F)F)N1CCCCCC1	0.68	i	-3.1%
O=P(c1ccccc1)(c1ccccc1)C(O)c1ccncc1 (stereo unspecified)	0.37	i	-3.3%
O=c1[nH]n2c(=O)c3c([nH]c2c1N=Nc1cccc(C(F)(F)F)c1)CCCC3	.	i	-6.1%
Cc1cc(C(=O)NCCCn2ccnc2)cs1	1.1	i	0.9%
CSc1nc2ccccc2n1C(=O)Oc1ccccc1	1.8	i	4.9%
Cc1cc(C)c(NC(=O)CSc2nc3c(c(=O)n2C)SC(C)C3)c(C)c1 (stereo unspecified)	-0.02	i	-2.3%
O=C(O)CC(CC(=O)Nc1nncs1)c1ccccc1 (stereo unspecified)	1.1	i	0.5%
CCOC(=O)CSc1nc(Nc2ccc3c(c2)OCO3)c2ccccc2n1	.	i	1.9%
O=c1c[n+]([O-])c2ccccc2n1OCc1c(F)cccc1F	0.37	i	4.9%
Cc1ccccc1N(CC(=O)NCCc1ccccc1)C(=O)c1ccc(N2CCCC2)nc1	-0.34	i	0.0%
CCCn1c(CN2CCN(C(=O)OCC)CC2)nc2c1c(=O)n(C)c(=O)n2C	0.33	i	6.1%
Cc1ccc2c(c1)nnn2C1CCN(S(=O)(=O)c2ccc(C(=O)N3CC(C)CC(C)C3)cc2)CC1 (stereo unspecified)	0.97	i	5.6%
Cc1cc(C(F)(F)F)c(C#N)c(N2CCOCC2)n1	.	i	-4.3%
CC(C)c1cc(C(=O)O)n(-c2ccccc2)n1	.	i	3.6%
Cc1ccc(S(=O)(=O)NC(=O)NCc2ccc3c(c2)OCO3)cc1	1.1	i	-0.1%
O=C(COc1ccccc1)N(Cc1ccco1)c1ccc(O)cc1	-0.64	i	4.9%
O=C(c1ccccc1F)N1CCN=C1SCc1cccnc1	2.3	i	-0.5%
CCc1nnc(NC(=O)CSc2nnc(-c3c[nH]c4ccccc34)n2C)s1	2.1	i	0.5%
Cc1ccc(C2(C)NC(=O)N(CC(=O)NC(=O)NC3CCCC3)C2=O)cc1 (stereo unspecified)	2.5	i	2.2%
CC(=O)CC(C)=NCCN=C(C)CC(C)=O	1.3	i	-1.0%
CCCC(=O)Nc1ccc2oc(-c3ccncc3)nc2c1	-0.21	i	-11%
COc1ccc(OCC(=O)N2CCOCC2)cc1	-1.2	i	5.7%
Cc1cc(OCC(O)CN(CCO)CCO)ccc1Cl (stereo unspecified)	0.14	i	-3.0%
CCOC(=O)CNC(=O)C1(c2ccccc2)CCCC1	.	i	4.0%
CC(C)CNc1oc(-c2ccc(F)cc2)nc1C#N	0.71	i	-0.5%
CN(C)c1nc(Oc2ccc(N)cc2)nc(N(C)C)n1	-0.3	i	5.9%
Cc1ccc(CN(C(=O)c2cc(=O)c3cc(Cl)c(C)cc3o2)C2CCS(=O)(=O)C2)cc1 (stereo unspecified)	.	i	0.2%
COc1ccc(NC2=NCC(=O)N2c2ccccc2F)c(OC)c1	1.5	i	2.0%
Cn1c(SCC(=O)N2CCc3ccccc3C2)nnc1-c1cccs1	1.2	i	-1.0%
Cc1cc2c(c(=O)n1Cc1ccccn1)C(C(C)C)C(C#N)=C(N)O2 (stereo unspecified)	-0.2	i	-4.5%
Cc1ccc(C)c(C(=O)CN2C(=O)CCC2=O)c1	1.2	i	-1.0%
COc1ccc(S(=O)(=O)Cc2ccc(C(=O)N3CCN(c4ccc(Cl)cc4)CC3)o2)cc1	-0.5	i	0.5%
CCn1nc(C(=O)OCC(=O)c2ccc3c(c2)OCCO3)c2ccccc2c1=O	0.22	i	0.9%
O=S(=O)(c1ccc(F)cc1)N1CCCC(CO)C1 (stereo unspecified)	-0.6	i	5.8%
Nc1nonc1C(=O)NC(c1ccccc1)c1ccccc1	-1.6	i	3.1%
COc1ccc(-c2nnc3ccc(SCC(=O)N4CCOCC4)nn23)cc1	-0.14	i	-1.5%
CCn1c2ccccc2c2cc(NC(=O)CSc3nnc(C4CC4)n3Cc3ccco3)ccc21	-0.58	i	-1.6%
COc1ccc(-c2cc(C(F)(F)F)nc(N3CCN(Cc4ccccc4)CC3)n2)cc1OC	0.24	i	-3.6%
Cc1ccc(CCC(=O)Nc2ccc(S(N)(=O)=O)cc2)o1	-0.25	i	4.0%

An excerpt of the results above, as a working copy:
SMILES	WNV protease inh	MT1-MMP promoter	Hsc70 ATP site
CC(C)CNc1oc(-c2ccc(F)cc2)nc1C#N	0.71	i	-0.5%
CN(C)c1nc(Oc2ccc(N)cc2)nc(N(C)C)n1	-0.3	i	5.9%

Continued:
SMILES	WNV protease inh	MT1-MMP promoter	Hsc70 ATP site
CC(C)c1nc(SCC(=O)N2CCCC2)c2ccccc2n1	-0.31	i	3.8%
O=C(Nc1ccncc1)C1COc2ccccc2O1 (stereo unspecified)	0.35	i	-3.1%
COc1cc2cc(CN(CCCO)S(=O)(=O)c3ccccc3)c(=O)[nH]c2cc1OC	0.91	i	2.2%
CCc1nn(C(C)C(=O)NCCN2CCN(c3cccc(C)c3C)CC2)c(=O)c2cc3occc3n12 (stereo unspecified)	0.79	i	-8.0%
CCOC(=O)CSC1=C(C#N)C(=O)NC(c2ccc(OC)cc2)S1 (stereo unspecified)	.	i	2.6%
COc1ccc(Nc2nc(N)nc(CN3CCC(Cc4ccccc4)CC3)n2)cc1	1.6	i	0.1%
O=S1(=O)N=C(N2CCN(Cc3ccccc3)CC2)c2ccccc21	-0.13	i	0.5%
CCOC(=O)N1CCN(c2ncnc3c2cnn3-c2ccc(OC)cc2)CC1	-1.2	i	-6.4%
CC1CN(S(=O)(=O)c2cccc(C(=O)NCc3ccc4c(c3)OCO4)c2)CC(C)O1 (stereo unspecified)	-0.9	i	1.3%
CCC1CCc2[nH]nc(C(=O)O)c2C1 (stereo unspecified)	.	i	8.0%
CCCCSc1nnc(-c2ccc(OC)cc2)n1C	.	i	-2.5%
Cc1cc(/C=C(\C#N)C(=O)NCc2cccs2)c(C)n1-c1ccccc1F	.	i	1.1%
CN1C(=O)CC(N2CCN(CC(=O)N3CCCC3)CC2)C1=O (stereo unspecified)	1	i	2.3%
CCOC(=O)C1CCN(S(=O)(=O)c2ccc3c4c(cccc24)C(=O)N3)CC1	0.8	i	4.5%
O=C(Nc1nnc(-c2ccccc2Cl)o1)c1ccc(S(=O)(=O)N2CCCCCC2)cc1	-0.09	i	-8.4%

Part of the list above, reformatted:
The line under a structure holds: WNV protease inh	MT1-MMP promoter	Hsc70 ATP site
CCn1nc(C(=O)OCC(=O)c2ccc3c(c2)OCCO3)c2ccccc2c1=O
→ 0.22	i	0.9%
O=S(=O)(c1ccc(F)cc1)N1CCCC(CO)C1 (stereo unspecified)
→ -0.6	i	5.8%
Nc1nonc1C(=O)NC(c1ccccc1)c1ccccc1
→ -1.6	i	3.1%
COc1ccc(-c2nnc3ccc(SCC(=O)N4CCOCC4)nn23)cc1
→ -0.14	i	-1.5%
CCn1c2ccccc2c2cc(NC(=O)CSc3nnc(C4CC4)n3Cc3ccco3)ccc21
→ -0.58	i	-1.6%
COc1ccc(-c2cc(C(F)(F)F)nc(N3CCN(Cc4ccccc4)CC3)n2)cc1OC
→ 0.24	i	-3.6%
Cc1ccc(CCC(=O)Nc2ccc(S(N)(=O)=O)cc2)o1
→ -0.25	i	4.0%
CC(C)c1nc(SCC(=O)N2CCCC2)c2ccccc2n1
→ -0.31	i	3.8%
O=C(Nc1ccncc1)C1COc2ccccc2O1 (stereo unspecified)
→ 0.35	i	-3.1%
COc1cc2cc(CN(CCCO)S(=O)(=O)c3ccccc3)c(=O)[nH]c2cc1OC
→ 0.91	i	2.2%
CCc1nn(C(C)C(=O)NCCN2CCN(c3cccc(C)c3C)CC2)c(=O)c2cc3occc3n12 (stereo unspecified)
→ 0.79	i	-8.0%
CCOC(=O)CSC1=C(C#N)C(=O)NC(c2ccc(OC)cc2)S1 (stereo unspecified)
→ .	i	2.6%
COc1ccc(Nc2nc(N)nc(CN3CCC(Cc4ccccc4)CC3)n2)cc1
→ 1.6	i	0.1%
O=S1(=O)N=C(N2CCN(Cc3ccccc3)CC2)c2ccccc21
→ -0.13	i	0.5%
CCOC(=O)N1CCN(c2ncnc3c2cnn3-c2ccc(OC)cc2)CC1
→ -1.2	i	-6.4%
CC1CN(S(=O)(=O)c2cccc(C(=O)NCc3ccc4c(c3)OCO4)c2)CC(C)O1 (stereo unspecified)
→ -0.9	i	1.3%
CCC1CCc2[nH]nc(C(=O)O)c2C1 (stereo unspecified)
→ .	i	8.0%
CCCCSc1nnc(-c2ccc(OC)cc2)n1C
→ .	i	-2.5%
Cc1cc(/C=C(\C#N)C(=O)NCc2cccs2)c(C)n1-c1ccccc1F
→ .	i	1.1%
